Compound activity deposited in PubChem by Broad Institute.
FGF22 binding = binders of human FGF22 protein, primary screen, FGF22 synaptogenesis inhibitor project, biophysical, thermal shift, single point; recombinant FGF22 thermal shift, SYPRO orange fluorescence; percent of sucrose octasulfate shift, DMSO zero; calls only at 9.99 µM; AID 651658, 2012; hit rate 1.5% among 340,000; Fibroblast growth factor 22 (Homo sapiens), Q9HCT0;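 active = melting point raised past a set limit in the mean and every replicate; three in four hits are not shown here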
Target sequence (Q9HCT0 whole entry, looked up): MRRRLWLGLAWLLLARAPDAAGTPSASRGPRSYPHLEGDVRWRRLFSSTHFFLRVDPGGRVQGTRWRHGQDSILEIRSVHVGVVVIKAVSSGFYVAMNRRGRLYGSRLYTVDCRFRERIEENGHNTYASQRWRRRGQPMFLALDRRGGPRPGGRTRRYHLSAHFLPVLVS
rRNA inh HTS = reduced GFP signal of wild-type E. coli, primary screen, bacterial rRNA inhibitor project, GFP/RFP fluorescence, OD600, single point | E. coli WT GFP vs humanized-ribosome RFP mutants, 24 h; hits give low values; DMSO median 0, no signal -100 | AID 720706, 2013 | GFP signal change (wild-type ribosome), % (concentration not given with the values) | hit rate 1.6% among 350,000;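 active = significant combined selectivity score with lowered wild-type GFP, culture density cut under 30%, mutant RFP and density less affected; inactive = any of these conditions unmet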; also: one replicate is shown; some compounds called inactive have numbers as strong as hits
MLL AF4-AF9 inh = inhibitors of AF4 peptide binding to AF9, primary screen, biochemical, AlphaScreen, biotin-AF4 peptide, FLAG-AF9, single point; Protein AF-9 (Homo sapiens), P42568; inhibition, % at 10 µM; hit rate 0.47% among 350,000; AID 651704, 2012;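 active = every replicate reaching a set inhibition limit, whatever the replicate mean, cut at about 25% in these data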;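 also: 0% = plate neutral control median and 100% = total signal loss; the record names both 10 and 1 µM as test concentration; the first replicate is given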
Target sequence (P42568 whole entry, looked up): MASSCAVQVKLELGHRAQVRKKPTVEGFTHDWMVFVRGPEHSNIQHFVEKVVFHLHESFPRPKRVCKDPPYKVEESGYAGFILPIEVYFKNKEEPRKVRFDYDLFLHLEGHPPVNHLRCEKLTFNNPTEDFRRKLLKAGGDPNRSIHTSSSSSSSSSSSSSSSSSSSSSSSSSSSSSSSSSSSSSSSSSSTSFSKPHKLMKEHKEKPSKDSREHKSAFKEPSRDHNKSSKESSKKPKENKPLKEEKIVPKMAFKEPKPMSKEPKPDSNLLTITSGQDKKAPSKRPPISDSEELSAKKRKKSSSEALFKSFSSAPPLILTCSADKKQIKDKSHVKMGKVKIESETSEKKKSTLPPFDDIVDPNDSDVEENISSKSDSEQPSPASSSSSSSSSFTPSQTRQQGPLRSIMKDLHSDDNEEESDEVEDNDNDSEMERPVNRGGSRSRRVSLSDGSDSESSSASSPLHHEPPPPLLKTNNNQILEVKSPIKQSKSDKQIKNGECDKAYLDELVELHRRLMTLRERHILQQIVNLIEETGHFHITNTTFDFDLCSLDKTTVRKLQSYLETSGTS
rRNA inh HTS OD600 = also measured in rRNA inh HTS; calls as there; OD600 change, %; measured here: OD600 growth;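 optical density of the mix in the first replicate; 0 = DMSO median and -100 = no signal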
rRNA inh HTS RFP = further read-out of rRNA inh HTS, marked with its call; RFP signal change, %; measured here: RFP humanized mutant strains;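 first replicate; 0 = DMSO median and -100 = no signal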
An asterisk follows results filed as active; i = inactive; & = joins results of further samples. This is a subset; the hit share may differ from the screen's.

A first look, 5 compounds:
Molecule	FGF22 binding	rRNA inh HTS	rRNA inh HTS OD600	rRNA inh HTS RFP	MLL AF4-AF9 inh
Cc1noc(C)c1S(=O)(=O)Nc1ccc2c(c1)C(=O)N([C@H](C)CO)C[C@@H](C)[C@H](CN(C)C(=O)Nc1ccc3c(c1)OCO3)OCCCC[C@@H](C)O2	i	2	0	-0.5	3.5
CCCNC(=O)N(C)C[C@@H]1Oc2cc(C#C[C@H](C)O)ccc2S(=O)(=O)N([C@H](C)CO)C[C@H]1C	i	4&5	9&8	2.2&-0.5	-0.6&0.1&-0.9
COc1ccc(S(=O)(=O)Nc2ccc3c(c2)C(=O)N([C@@H](C)CO)C[C@@H](C)[C@@H](CN(C)S(=O)(=O)c2cn(C)cn2)O3)cc1	i	1	1	-2.4	-2.0
O=C(C[C@@H]1C[C@@H]2c3cc(NC(=O)CC4CC4)ccc3O[C@@H]2[C@H](CO)O1)NCc1ccccn1	i	0	2	-0.5	-3.4
O=C(N[C@@H]1CC[C@H](CCNC(=O)c2ccccc2F)O[C@H]1CO)c1ccc2c(c1)OCO2	i	-2	3	-0.9	1.1

The listing, from the start:
Molecule	FGF22 binding	rRNA inh HTS	rRNA inh HTS OD600	rRNA inh HTS RFP	MLL AF4-AF9 inh
Cc1noc(C)c1S(=O)(=O)Nc1ccc2c(c1)C(=O)N([C@H](C)CO)C[C@@H](C)[C@H](CN(C)C(=O)Nc1ccc3c(c1)OCO3)OCCCC[C@@H](C)O2	i	2	0	-0.5	3.5
CCCNC(=O)N(C)C[C@@H]1Oc2cc(C#C[C@H](C)O)ccc2S(=O)(=O)N([C@H](C)CO)C[C@H]1C	i	4&5	9&8	2.2&-0.5	-0.6&0.1&-0.9
COc1ccc(S(=O)(=O)Nc2ccc3c(c2)C(=O)N([C@@H](C)CO)C[C@@H](C)[C@@H](CN(C)S(=O)(=O)c2cn(C)cn2)O3)cc1	i	1	1	-2.4	-2.0
O=C(C[C@@H]1C[C@@H]2c3cc(NC(=O)CC4CC4)ccc3O[C@@H]2[C@H](CO)O1)NCc1ccccn1	i	0	2	-0.5	-3.4
O=C(N[C@@H]1CC[C@H](CCNC(=O)c2ccccc2F)O[C@H]1CO)c1ccc2c(c1)OCO2	i	-2	3	-0.9	1.1
C[C@H](CO)N1C[C@H](C)[C@@H](CN(C)C(=O)Nc2ccc(F)cc2)Oc2ccc(NC(=O)CCCCCC(=O)Nc3ccccc3N)cc2C1=O	i	4	12	-3.8	-0.2
N#C[C@@H]1[C@H](c2ccc(-c3cccc(F)c3)cc2)[C@H](CO)N1S(=O)(=O)c1cccc(F)c1	i	-13	-46	2.8	0.0
CNC[C@H]1OCCCC[C@H](C)Oc2ccc(NC(=O)Nc3ccc(F)cc3)cc2C(=O)N([C@H](C)CO)C[C@@H]1C	i	6	-2	-0.7	3.6
CO[C@H]1CN(C)C(=O)c2ccc(NS(C)(=O)=O)cc2OC[C@H](C)N(C(=O)CN(C)C)C[C@H]1C	i	4	7	-1.3	0.6
CCC(=O)N1CCC2(CC1)CN(CC1CCOCC1)[C@@H](CO)c1c2c2ccc(OC)cc2n1C	i	9	0	0.5	-7.5
C[C@H](CO)N1C[C@H](C)[C@@H](CN(C)C(=O)Nc2ccc3c(c2)OCO3)Oc2c(NC(=O)Nc3ccc(F)cc3)cccc2C1=O	i	3	11	-1.6	0.3
COc1ccc2c3c(n(C)c2c1)[C@@H](CO)N(CC1CCCC1)CC31CCN(Cc2nccs2)CC1	i	1	-6	6.9	7.9
CC(C)NC(=O)N1[C@@H](C#N)[C@H](c2ccc(C#CC3CCCC3)cc2)[C@@H]1CO	i	-35	-71	-2.3	-29
CO[C@@H]1CN(C)C(=O)c2ccc(NC(=O)Cc3ccccc3)cc2OC[C@H](C)NC[C@@H]1C	i	0	-4	0.2	0.2
O=C(C[C@H]1C[C@@H]2c3cc(NC(=O)NC4CCCC4)ccc3O[C@@H]2[C@H](CO)O1)NCc1ccc(-c2ccccc2)cc1	i	-7	-15	0.4	0.4
CCC(=O)N(C)C[C@H]1Oc2cc(-c3cccnc3)ccc2S(=O)(=O)N([C@@H](C)CO)C[C@H]1C	i	0	5	0.1	1.8
COc1ccc(NC(=O)N(C)C[C@H]2Oc3ncc(C#C[C@@H](C)O)cc3C(=O)N([C@@H](C)CO)C[C@@H]2C)cc1	i	5	5	0.1	-1.4
Cc1ccc(S(=O)(=O)Nc2ccc3c(c2)C(=O)N([C@@H](C)CO)C[C@H](C)[C@@H](CN(C)CC2CC2)O3)cc1	i	5	10	-1.4	0.5
CN1C(=O)c2cc(NS(=O)(=O)c3cccc(F)c3)ccc2OC[C@H]2O[C@H](CC(=O)N3CCc4ccccc4C3)CC[C@H]21	i	-3	-21	-2.4	2.5
C[C@@H]1CN([C@H](C)CO)C(=O)c2cc(Br)cnc2O[C@H]1CN(C)Cc1cccc(F)c1	i	-5	-7	-5.9	-3.0
C[C@@H]1CN([C@H](C)CO)C(=O)CCCn2nncc2CO[C@@H]1CN(C)Cc1ccc(C(F)(F)F)cc1	i	-4	-4	2.1	1.9
C[C@H](CO)N1C[C@H](C)[C@@H](CN(C)C(=O)Nc2cccc(F)c2)Oc2cc(C#CC3(O)CCCC3)ccc2S1(=O)=O	i	-15	-15	-3.1	-0.1
COc1ccccc1CN1[C@@H](CO)[C@@H]2c3ccccc3N(C(=O)C3CCCC3)C[C@@H]21	i	-3	-13	2.9	5.9
CSc1ccc(CN2C(=O)C(C)ON=C2c2ccccc2F)cc1 (stereo not given)	i	-22	-29	-20	-0.4
O=C(C[C@H]1C[C@H]2c3cc(NC(=O)NC4CCCC4)ccc3O[C@H]2[C@H](CO)O1)NCc1ccc(Cl)cc1	i	-2	-4	-1.9	-1.2
O=C(C[C@@H]1CC[C@H](NC(=O)NC2CCCCC2)[C@H](CO)O1)NCc1ccccc1	i	0	-3	-1.1	-2.3
Cc1ccccc1-c1cc2nc(NCc3ccc4occc4c3)n(C)c(=O)c2s1	i	0	20	3.2	-1.2
O=C(CSC1=Nc2ccccc2C2CC=NN12)Nc1ccc2c(c1)OCO2 (stereo not given)	i	6	3	1.5	1.0
CCC(=O)N(C)C[C@H]1Oc2ncc(C#Cc3ccccc3OC)cc2C(=O)N([C@H](C)CO)C[C@@H]1C	i	-4	-1	-1.7	-1.9
C/C=C/c1ccc([C@@H]2[C@@H](CO)N(C(=O)C3CCC3)[C@H]2CN(CC)C(=O)CC)cc1	i	-1	0	-2.6	-3.7

Next part.
Values run as follows: FGF22 binding | rRNA inh HTS | rRNA inh HTS OD600 | rRNA inh HTS RFP | MLL AF4-AF9 inh
- COc1ccc2c3c(n(C)c2c1)[C@@H](CO)NCC31CN(C(=O)c2ccccc2)C1
    i | 2 | 1 | 3.8 | -1.2
- Cc1ccn(CC(=O)NC2CCCN(Cc3ccccc3F)C2)n1 (stereo not given)
    i | 2 | 12 | -6.0 | -1.2
- CO[C@H]1CC[C@@H]2CCN(C)C(=O)[C@H](C)[C@@H](OC)CN(C)C(=O)c3cccc(C#N)c3OC[C@H]1O2
    i | 2 | 8 | -6.2 | -1.5
- COc1ccc(C2c3cc(OC)c(OC)cc3CC3C(=O)OCC32)cc1OC (stereo not given)
    i | 8 | 1 | 3.5 | -6.2
- C[C@@H]1CN([C@H](C)CO)C(=O)Cc2cc(NC(=O)Nc3ccccc3)ccc2O[C@@H]1CN(C)S(=O)(=O)c1ccc(F)cc1
    i | -2 | -1 | 4.9 | 3.2
- COc1cc(CN2CC3(CN(C(=O)Nc4c(C)noc4C)C3)c3c([nH]c4cc(OC)ccc34)[C@@H]2CO)cc(OC)c1
    i | 2 | 0 | -2.7 | -1.2
- OCCN1CCN(c2ncnc3c2ncn3[C@H]2CN(Cc3ccncc3)C[C@@H](CO)O2)CC1
    i | 11 | 20 | -3.3 | -4.1
- C[C@@H]1CN([C@@H](C)CO)S(=O)(=O)c2ccc(C3=CCCCC3)cc2O[C@@H]1CN(C)C(=O)C1CCCCC1
    i | -5 | -7 | 4.1 | 5.9
- CCCNC(=O)NC[C@@H]1[C@H](c2ccc(C3=CCCCC3)cc2)[C@@H](CO)N1C(C)=O
    i | -7 | -5 | 5.8 | 9.1
- CC1(C(=O)Nc2cccc(C(F)(F)F)c2)Cc2c(-c3cccc(C(N)=O)c3)ccnc2O1 (stereo not given)
    i | -23 | -26 | 1.8 | 0.6
- O=C(C[C@H]1CC[C@H](NS(=O)(=O)c2ccccc2)[C@H](CO)O1)N1CCc2ccccc2C1
    i | -3 | 2 | -2.8 | -2.0
- O=C(CSc1ccc(Cl)cc1)OCC(=O)N1CCN(c2ccccc2)CC1
    i | -4 | -2 | 3.1 | -0.3
- C[C@@H]1CN([C@@H](C)CO)S(=O)(=O)c2ccc(-c3ccccc3)cc2O[C@H]1CN(C)C(=O)c1ccc2c(c1)OCO2
    i | -10 | -30 | -5.9 | 2.2
- COc1ccc(NC(=O)N[C@@H]2CC[C@@H](CCNC(=O)CN3CCOCC3)O[C@@H]2CO)cc1
    i | 0 | 7 | -0.8 | -0.9
- C[C@H]1CN([C@@H](C)CO)C(=O)c2cc(NC(=O)C3CCCCC3)ccc2O[C@@H]1CN(C)CC1CCCCC1
    i | 0 | 1 | -1.5 | 2.2
- C[C@]12c3[nH]c4cc(-c5ccco5)ccc4c3CCN1C(=O)[C@@H](CC(=O)NCCc1ccccn1)C[C@@H]2C(=O)N1CCCCC1
    i | 14 | 7 | 9.0 | 16
- C[C@H]1CN([C@@H](C)CO)C(=O)c2cccc(NC(=O)NC3CCCCC3)c2O[C@@H]1CN(C)Cc1ccc2c(c1)OCO2
    i | -7 | -14 | 0.4 | 6.3
- CC[C@]12c3[nH]c4cc(CCC(=O)N(C)C)ccc4c3CCN1C(=O)[C@@H](CC(=O)NCc1cccc(C(F)(F)F)c1)C[C@@H]2C(=O)N1CCN(C(=O)C2CC2)CC1
    i | -4 | 1 | 0.3 | -1.1
- CCOC(=O)[C@]12CCC=C1N(Cc1ccc3c(c1)OCO3)C(=O)[C@H](CC(=O)NCC1CCCCC1)C2
    i | -28 | -35 | -1.9 | 1.6
- C[C@@H]1CN([C@@H](C)CO)C(=O)c2cc(N(C)C)ccc2O[C@H]1CN(C)Cc1ccc(Oc2ccccc2)cc1
    i | -3 | -17 | 1.3 | 45*
- CC(=O)N1[C@H](CNC(=O)C2CC2)[C@@H](c2ccc(-c3ccccc3)cc2)[C@@H]1CO
    i | -6 | -10 | 0.7 | 1.8
- COc1ccc(S(=O)(=O)Nc2ccc3c(c2)C(=O)N([C@@H](C)CO)C[C@@H](C)[C@@H](CN(C)C(=O)CCC(F)(F)F)OCCCC[C@@H](C)O3)cc1
    i | -2 | -4 | -0.2 | -0.3
- CCOC(=O)C1(C)CCN1C(=O)c1cc(F)cc(F)c1 (stereo not given)
    i | 12 | 13 | 0.4 | -0.7
- C[C@@H]1CN([C@H](C)CO)C(=O)c2cc(C3=CCCC3)cnc2O[C@@H]1CN(C)Cc1ccc(C(=O)O)cc1
    i | 5 | 14 | -3.0 | -4.8
- CCOC(=O)C1(C)CCCN(C(=O)c2ccc(OC)cc2OC)C1 (stereo not given)
    i | -2 | -3 | 1.6 | -0.1
- COCCNc1nc2cc(-c3ccccc3)sc2c(=O)n1C
    i | 1 | -7 | -2.2 | -13
- CCNC(=O)C[C@H]1CC[C@@H]2[C@H](COC[C@H](O)CN2Cc2ccc(Cl)c(Cl)c2)O1
    i | 0 | 0 | -1.0 | -0.6
- C[C@H]1CN([C@@H](C)CO)C(=O)Cc2cc(NC(=O)Cn3cnnn3)ccc2O[C@@H]1CN(C)Cc1ccc(C(F)(F)F)cc1
    i | -3 | -8 | 1.2 | -2.4
- COc1ccccc1-c1cnc2c(c1)C(=O)N([C@H](C)CO)C[C@@H](C)[C@H](CN(C)C)O2
    i | 4 | 2 | -3.2 | 1.8
- COc1ccccc1CNC(=O)C[C@H]1C[C@@H]2c3cc(NC(=O)Nc4ccc(C(F)(F)F)cc4)ccc3O[C@@H]2[C@@H](CO)O1
    i | 0 | 10 | -3.4 | 3.0
- C[C@H]1CCCCO[C@H](CN(C)C(=O)CCC(F)(F)F)[C@@H](C)CN([C@@H](C)CO)C(=O)c2cc(N(C)C)ccc2O1
    i | 0 | 1 | -0.6 | 2.6
- CN1C(=O)c2cc(NC(=O)c3ccc(C(F)(F)F)cc3)ccc2OC[C@@H]2O[C@@H](CC(=O)O)CC[C@H]21
    i | -3 | 2 | 0.4 | -0.6
- CC(=O)c1c(C)[nH]c(C(=O)NCc2ccc(Cl)cc2)c1C
    i | 3 | 1 | 3.1 | -1.4
- C[C@@H]1CN([C@H](C)CO)C(=O)c2cc(C#Cc3ccccc3F)cnc2O[C@H]1CN(C)S(=O)(=O)c1ccccc1
    i | -3 | -5 | -1.1 | 0.7
